Source: PubChem BioAssay
VDR inhibitor: blocks the human vitamin D receptor; VDR-SRC2-3 peptide fluorescence polarization, 2 h; Potency, µM, for inactives: max response, negative = inhibition, most hits filed as inhibitors; hit rate 0.93% among 400,000; AID 504847; P11473; active = well fitted inhibition curve with a large enough effect; inconclusive = small, poorly fitted or top-dose-only effect, or another doubt; inactive = no such curve, though single readings can be large or run the other way; also: series mostly up to about 120 µM
Target sequence (P11473 whole entry, looked up): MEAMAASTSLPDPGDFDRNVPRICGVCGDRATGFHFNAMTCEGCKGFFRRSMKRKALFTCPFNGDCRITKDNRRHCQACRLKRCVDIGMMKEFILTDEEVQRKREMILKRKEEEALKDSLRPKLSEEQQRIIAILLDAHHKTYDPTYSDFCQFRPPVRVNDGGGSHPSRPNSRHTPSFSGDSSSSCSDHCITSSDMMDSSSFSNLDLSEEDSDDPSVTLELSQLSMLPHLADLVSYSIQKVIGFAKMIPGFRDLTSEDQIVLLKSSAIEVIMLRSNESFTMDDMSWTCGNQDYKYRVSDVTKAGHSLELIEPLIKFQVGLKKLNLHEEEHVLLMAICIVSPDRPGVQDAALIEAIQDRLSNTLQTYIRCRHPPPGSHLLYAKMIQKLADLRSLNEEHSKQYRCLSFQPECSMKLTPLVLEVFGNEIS
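Two reagent solutions held at 4 deg C in the dark were dispensed, compounds pinned at 23 nl, and the mixture incubated 2 h at room temperature. Read-out: fluorescence polarization of VDR–SRC2-3 peptide binding.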
* hit, by the source's call; ? = inconclusive. % is scaled to controls: 0 for no effect and ±100 for the full control effect; potency is read from the fitted curve at half-maximal effect.

SMILES	VDR inhibitor
O=C(Oc1ccc2c3c(c(=O)oc2c1)CCC3)c1ccco1	-15.4%
CSc1ccc(S(=O)(=O)NCC(=O)OCC(=O)N(Cc2ccccc2)C(C)C)cc1[N+](=O)[O-]	9.3%
Cc1cc(C(F)F)n2ncc(C(=O)O)c2n1	14.6%
Cc1ccc(/C(N)=N/OC(=O)c2ccco2)cc1	21.0%
O=C(NCC1CCCO1)c1ccc2c(=O)n(CCc3ccccc3)c(=O)[nH]c2c1 (centres undefined)	-2.6%
O=S1(=O)CCC(NS(=O)(=O)c2cccc3cccnc23)C1 (centres undefined)	-11.3%
CCN(c1ccccc1)S(=O)(=O)c1ccc(NC(=O)c2cc(=O)c3c(C)cc(C)cc3o2)cc1	-0.8%
N=c1c(S(=O)(=O)c2ccccc2)cc2c(=O)n3ccccc3nc2n1CC1CCCO1 (centres undefined)	-2.6%
COc1cc(NC(=O)c2cccc(C)c2)ccc1NC(=O)c1cc2ccccc2o1	-12.1%
O=C(O)CSc1nnc(COc2ccc([N+](=O)[O-])cc2)n1-c1ccccc1	0.7%
CCn1c(SCC(=O)NC(=O)NC(C)(C)C)nc2ccccc21	?
CSc1ncc(Cl)c(C(=O)Nc2ccc(S(=O)(=O)N3CCCC(C)C3)cc2)n1 (centres undefined)	6.2%
O=C(/C=C/c1ccc2c(c1)OCO2)Nc1c(C(=O)O)[nH]c2ccccc12	?
Cc1ccc(C(=O)N/C(=C/c2ccc(-c3cccc([N+](=O)[O-])c3)o2)C(=O)NC(C)(C)C)cc1	9.6%
O=C(Nc1cccc(C(F)(F)F)c1)Oc1ccccc1N1CCOCC1	-20.0%
O=C(/C=C/N1CCOCC1)c1cc2ccccc2o1	4.9%
CNC(=S)NCCCc1ccccc1	-16.8%
O=C(CC(=O)N/N=C/c1ccccc1O)NCc1cccnc1	-14.9%
c1cncc(Oc2cccc(Oc3cccnc3)c2)c1	2.2%
FC(F)(F)c1cccc(Cc2noc(CN3CCC(c4ccncc4)CC3)n2)c1	5.4%
COc1cccc(-n2c(C)c(C(C)=O)c(C(C)=O)c2C)c1	-0.1%
CCn1cc(C(=O)O)c(=O)c2cc(F)c(N3CCN(C(=S)NC(=O)c4c(OC)cccc4OC)CC3)cc21	2.2%
CCc1nc(NCCO)c(C#N)c2c1CCCC2	7.3%
CCOC(=O)CNc1nc(-c2ccncc2)nc2ccccc12	2.9%
Cc1ccccc1S(=O)Cc1ccc(C(=O)NC2CCN(Cc3ccccc3)CC2)o1 (centres undefined)	-5.5%
CCOC(=O)c1[nH]c2ccc(Br)cc2c1NC(=O)CCN1CCOCC1	-1.6%
Cc1cccc(-c2noc(CCCC(=O)Nc3ccc(C(N)=O)cc3)n2)c1	12.4%
CC(C)(C)c1ccc(/C=C(\c2nc3ccccc3[nH]2)S(=O)(=O)c2ccccc2)cc1	?
CCN1/C(=C/C(C)=C/c2sc3ccccc3[n+]2CC)Sc2ccccc21	-27.4%
COc1ccc(OC)c(CCNC(=O)c2sc3nc4n(c(=O)c3c2C)CCCC4)c1	12.4%
COC(=O)c1cc(Cl)c(NC(=O)/C=C/c2ccc(OC)cc2)cc1OC	-5.4%
CCC(=O)Nc1ccc2c(c1)nc(CCN1CCC(C)CC1)n2C	14.9%
CCN(c1ccccc1)S(=O)(=O)c1cc(CN2C(=O)c3cccnc3C2=O)ccc1OC	-9.9%
Cc1c(C(=O)c2ccccc2C(=O)O)sc2ccccc12	6.9%
CC1C(=O)Nc2ccccc2N1C(=O)C1CC1 (centres undefined)	1.2%
CSc1ccc(OCC(=O)Nc2ccc(N3CCOCC3)c(Cl)c2)cc1	1.5%
CC1CCC(NC(=O)c2nn(C)c3c2CS(=O)(=O)c2ccccc2-3)CC1 (centres undefined)	-16.1%
CC(O)C(O)C(O)C(O)/C=N/NC(=O)c1ccccc1 (centres undefined)	-6.1%
COc1ccc(NC(=S)NCCCN2CCCC2)cc1Cl	-20.0%
CC(CCc1ccco1)N(C)S(=O)(=O)c1csc(C(N)=O)c1 (centres undefined)	-1.4%
CCOC(=O)c1ccc(CC(=O)c2ccc(O)cc2O)o1	8.1%
O=C(NC1CCCCC1)N(C1=NCCCCC1)c1ccc(Br)cc1	4.3%
COc1ccc(Cl)cc1NC(=O)c1sc2nc(C)nc(N3CCOCC3)c2c1C	-11.1%
CCOc1ccc(C(=O)NCC(=O)OCc2ccc(F)cc2Cl)cc1	-16.6%
O=C(NC1CC(=O)N(c2ccccc2)C1)C(=O)c1c[nH]c2ccccc12 (centres undefined)	-15.0%
C=CCOc1ccc(/C=N/N2C(=O)C(CC(=O)Nc3ccc(F)cc3F)SC2=NC)cc1 (centres undefined)	-8.3%
COc1ccc(C2CC(C(F)(F)F)n3nc(C(=O)O)cc3N2)cc1 (centres undefined)	-21.8%
O=C(CNC(=O)Cc1ccc(Cl)cc1)NCC(=O)N1CCCCC1	-1.2%

By substructure, the compounds so far containing an aryl thioether with sulfur outside any ring (five)
SMILES	VDR inhibitor
CSc1ccc(S(=O)(=O)NCC(=O)OCC(=O)N(Cc2ccccc2)C(C)C)cc1[N+](=O)[O-]	9.3%
O=C(O)CSc1nnc(COc2ccc([N+](=O)[O-])cc2)n1-c1ccccc1	0.7%
CCn1c(SCC(=O)NC(=O)NC(C)(C)C)nc2ccccc21	?
CSc1ncc(Cl)c(C(=O)Nc2ccc(S(=O)(=O)N3CCCC(C)C3)cc2)n1 (centres undefined)	6.2%
CSc1ccc(OCC(=O)Nc2ccc(N3CCOCC3)c(Cl)c2)cc1	1.5%

Back to the main list with the 3 entries that preceded the break.
SMILES	VDR inhibitor
C=CCOc1ccc(/C=N/N2C(=O)C(CC(=O)Nc3ccc(F)cc3F)SC2=NC)cc1 (centres undefined)	-8.3%
COc1ccc(C2CC(C(F)(F)F)n3nc(C(=O)O)cc3N2)cc1 (centres undefined)	-21.8%
O=C(CNC(=O)Cc1ccc(Cl)cc1)NCC(=O)N1CCCCC1	-1.2%
O=S1(=O)c2c(F)cccc2OC(COCc2ccccc2)CN1C1CCCC1 (centres undefined)	-14.3%
CS(=O)(=O)N(Cc1ccc(Cl)cc1)c1ccc(C(=O)NCCSc2ccccn2)cc1	-5.0%
COC(=O)c1c(NC(=O)CN2C(=O)NC3(CCCCC3C)C2=O)sc2c1CCC2 (centres undefined)	1.1%
CCCCc1cc2c(s1)CCCC/C2=N/O	7.0%
NC(=O)CSc1nc2cccnc2n1-c1ccc(F)cc1	14.8%
O=C(Cn1cnc2nc3c(cc2c1=O)CCCC3)Nc1ccc(F)cc1Cl	3.7%
COc1cccc(CNC(=O)C(C(=O)NCc2cccc(OC)c2)c2ncc(C(F)(F)F)cc2Cl)c1	-16.2%
NC(CO)C(O)c1ccc([N+](=O)[O-])cc1 (centres undefined)	-18.1%

Following part.
| smiles | VDR inhibitor |
| --- | --- |
| Cc1ccc(OCCOC(=O)CN2C(=O)NC3(CCCC3)C2=O)cc1 | ? |
| CCOC(=O)c1c(C)[nH]c(C(=O)OCc2c(C)noc2C)c1C | 16.7% |
| CCNC(=S)/N=C(/Nc1ccc(OC)cc1)Nc1nc(C)cc(C)n1 | 11.9% |
| CC(C)(C)NC(=O)CSc1nc(-c2ccccc2)cc(=O)[nH]1 | -12.3% |
| Cc1cccc(N2CCN(C(=O)N3CCCCC3)CC2)c1C | 15.0% |
| CCN(CC)C(=O)C(C)N(C#N)c1nc(Cl)nc(N(C)C)n1 (centres undefined) | -12.8% |
| COc1ccc(NC(=O)c2csc(C)c2)cc1OC | 8.4% |
| CC(C)OCCCN(C)C1CCN(S(=O)(=O)c2ccc(-c3cc(C(F)(F)F)no3)s2)CC1 | 1.6% |
| COc1ccc(CN=C2NN=C(c3ccccc3)CS2)cc1 | -29.5% |
| O=C(NC(C(=O)N/N=C/c1c2ccccc2cc2ccccc12)c1n[nH]c(=O)c2ccccc12)c1ccccc1 (centres undefined) | -9.1% |
| O=C(Cn1c(=O)n(-c2ccc(Cl)cc2)c(=O)c2sc3ccccc3c21)NC1CCCC1 | -5.8% |
| CCCCc1nc(SCC(=O)Nc2cccc(Cl)c2)n[nH]1 | -0.6% |
| CCn1cc(Br)c(C(=O)Nc2cccc(SC)c2)n1 | -0.8% |
| CN1CC(=O)N(C)c2nc(Br)n(C)c2C1=O | 0.9% |
| O=C(c1ccco1)N1CCN(S(=O)(=O)c2ccc(Br)cc2)CC1 | -29.6% |
| COc1ccc(CNC(=O)C2(CC3CC(c4ccccc4)=NO3)CCN(C(=O)C3(C)CC3)CC2)cc1 (centres undefined) | 3.9% |
| COCCCNC(=O)c1oc2ccc(S(=O)(=O)N(C)C3CCCCC3)cc2c1C | -4.9% |
| COC(=O)C1CC(O)CN1C(=O)NC1CCCCC1 (centres undefined) | -1.3% |
| COc1ccc(CCNC(=O)COC(=O)/C=C/c2cccs2)cc1 | -3.0% |
| Cc1cccc(C(=O)Nc2ccc(CC(=O)O)cc2)c1 | -5.0% |
| CC(NC(=O)CNC(=O)[C@@H]1Cc2ccccc2CN1)c1ccccc1 (some centres undefined) | 12.0% |
| CC(C)(C)[C@H]1COC(=O)[C@@H](Cc2ccc(F)cc2)CC/C=C/C[C@@H](CC(=O)N[C@@H](CO)Cc2ccccc2)C(=O)N1 | 0.5% |
| CC(C)Cn1nc(-c2ccccc2)c2ccccc2c1=O | -0.8% |
| CC(C)Oc1ccc(C(CC(=O)NCc2ccco2)c2ccccc2)cc1 (centres undefined) | 17.4% |
| Cc1noc(C)c1C(=O)N1CCC2(CC1)CN(Cc1cc(C(F)(F)F)cc(C(F)(F)F)c1)C2 | -19.9% |
| COc1ccc(NC(=O)CN(C)C(=O)c2cc(S(=O)(=O)N3CCCCCC3)ccc2OC)cc1 | 8.2% |
| CC1(C)CC[C@]2(C(=O)O[C@@H]3O[C@H](CO)[C@@H](O)[C@H](O)[C@H]3O)CC[C@]3(C)C(=CCC4[C@@]5(C)CC[C@H](O[C@@H]6O[C@H](C(=O)O)[C@@H](O[C@H]7OC[C@@H](O)[C@@H](O)[C@@H]7O)[C@H](O)[C@H]6O)C(C)(C)C5CC[C@]43C)[C@@H]2C1 (some centres undefined) | -22.9% |
| S=C(Nc1cccnc1)N1CCCCC1 | 3.6% |
| CCCc1cc(Nc2ccc(C)cc2)n2ncnc2n1 | 4.8% |
| CCOc1ccc(S(=O)(=O)NCCC(=O)NCc2ccccn2)cc1 | -6.3% |
| CCOC(=O)c1c(NC(=O)C2CCCO2)sc(C)c1C (centres undefined) | 3.8% |
| CC(C)Cn1c(-c2ccc(S(=O)(=O)N3CCCC3)cc2)csc1=Nc1ccccc1 | 9.0% |
| O=C(CSc1nc(=O)n(Cc2ccccn2)c2c1CCC2)Nc1ccccc1 | -4.2% |
| CN(C)/C=C/C(=C\C(=O)C(F)(F)F)Nc1ccc(C(F)(F)F)cc1 | -13.6% |
| O=C1CC(c2ccco2)CC(O)=C1C=Nc1cc(Cl)ccc1Cl (centres undefined) | -14.5% |
| Cc1ccc(C(=O)Nc2ncnc3sc4c(c23)CCCCC4)cc1 | 1.7% |
| COc1ccc(NS(=O)(=O)c2cc3c4c(c2)C(C)C(=O)N4CCC3)cc1 (centres undefined) | 7.5% |
| COc1ccc(NC(=O)c2cc(C(C)=O)n3ccccc23)cc1 | 12.0% |
| CCOC(=O)c1cc(OC(=O)c2cc(OC)c(OC)c(OC)c2)n(-c2ccccc2)n1 | -4.0% |
| O=C(O)c1cc(-c2ccccc2)n(-c2ccccc2C(=O)O)n1 | 10.5% |
| Cc1ccc(-c2csc(NC(=O)C[n+]3cc(-c4ccc(C)cc4)n4c3CCC4)n2)cc1 | 4.5% |
| O=C(CN1CCN(c2ccccc2F)CC1)NC(=O)NC1CCCCC1 | 14.3% |
| OC(COc1ccc(Br)cc1)CN1CCC(Cc2ccccc2)CC1 (centres undefined) | 12.7% |
| C#CCOCCOCCOCCNc1nc(N2CCN(C(=O)CCCCCCCCCCNC(=O)Cn3cc(CCCCCN)nn3)CC2)nc(N2CCN(C(=O)CCCCCCCCCCNC(=O)[C@@H](CCSC)n3cc(CCO)nn3)CC2)n1 | 25.0% |
| CC(C)(C)n1nnnc1CN1C2CCC1CC(NC(=O)Nc1ccccc1)C2 (centres undefined) | 3.7% |
| O=C(Nc1ccc(S(=O)(=O)N2CCOCC2)cc1)c1cccc([N+](=O)[O-])c1 | 2.6% |
| O=C(NC(Cc1ccccc1)C(=O)NCCc1ccccn1)c1ccccc1 (centres undefined) | -5.6% |
| CSc1ccc(S(=O)(=O)NCC(=O)OCC(=O)N(C)CC(=O)Nc2ccccc2Cl)cc1[N+](=O)[O-] | -3.3% |
| CC1=C(C(=O)Nc2cc(Cl)ccc2C)C(c2sccc2C)n2ncnc2N1 (centres undefined) | 18.3% |
| CCOc1ccc(C(=O)NC(=S)Nc2ccc(NC(=O)C(C)C)cc2)cc1[N+](=O)[O-] | -17.8% |

(cont.)
| smiles | VDR inhibitor |
| --- | --- |
| O=C(/C=C/c1cn(-c2ccccc2)nc1-c1cccnc1)c1ccco1 | 50.1µM* |
| Cc1c(NS(=O)(=O)c2ccc(S(=O)(=O)c3ccccc3)s2)c(=O)n(-c2ccccc2)n1C | -18.7% |
| COc1ccc(NC2CCCN(C(=O)CCC(=O)c3ccc(F)cc3)C2)cc1 (centres undefined) | 10.4% |
| CCN1C[C@@H]2[C@@H]3C(=O)N(C)C(=O)[C@@H]3[C@](CC)(C1=O)N2C(=O)c1ccc(Cl)cc1 | -2.7% |
| O=C(COc1ccc(Cl)cc1)N(Cc1ccc(F)cc1)C1CCS(=O)(=O)C1 (centres undefined) | -10.4% |
| CCc1ccccc1N(C)S(=O)(=O)c1ccc2[nH]cc(C(=O)NCCOC)c(=O)c2c1 | 17.3% |
| CCOc1cc(/C=N/NC(=O)c2cccnc2)ccc1OC(=O)c1ccco1 | -3.0% |
| Oc1ccc(O)c(Cc2nc3ccccc3[nH]2)c1 | 4.8% |
| N#Cc1ccc(NC(=O)COC(=O)CCc2ccc(S(=O)(=O)N3CCCCC3)cc2)cc1 | ? |
| CCOC(=O)c1[nH]c(=O)[nH]c1CSc1nc(C)cc(C)n1 | -6.1% |
| Cc1ccc(S(=O)(=O)CC(=O)N2CCN(c3nc4c(F)cccc4s3)CC2)cc1 | 11.5% |
| Cc1ccc(S(=O)(=O)N2CCCc3cc(NC(=O)c4cccc(Cl)c4)ccc32)cc1 | 9.0% |

These rows are one share of the data (hit frequency here may not be typical).
